Compound activity: PubChem, ICCB-Longwood Screening Facility, Harvard Medical School
PV pol inh: poliovirus RNA polymerase inhibition; P03300; poliovirus polymerase elongation, fluorescence polarization; stronger effect = lower value; % elongation, % (compound at 16.7 µg/mL); actives 0.66% (n = 150,000); AID 588519; in the data active = % elongation below about 90%; also: some results filed as inactive read as strong as hits
Target sequence (P03300 1749-2209 limits assumed): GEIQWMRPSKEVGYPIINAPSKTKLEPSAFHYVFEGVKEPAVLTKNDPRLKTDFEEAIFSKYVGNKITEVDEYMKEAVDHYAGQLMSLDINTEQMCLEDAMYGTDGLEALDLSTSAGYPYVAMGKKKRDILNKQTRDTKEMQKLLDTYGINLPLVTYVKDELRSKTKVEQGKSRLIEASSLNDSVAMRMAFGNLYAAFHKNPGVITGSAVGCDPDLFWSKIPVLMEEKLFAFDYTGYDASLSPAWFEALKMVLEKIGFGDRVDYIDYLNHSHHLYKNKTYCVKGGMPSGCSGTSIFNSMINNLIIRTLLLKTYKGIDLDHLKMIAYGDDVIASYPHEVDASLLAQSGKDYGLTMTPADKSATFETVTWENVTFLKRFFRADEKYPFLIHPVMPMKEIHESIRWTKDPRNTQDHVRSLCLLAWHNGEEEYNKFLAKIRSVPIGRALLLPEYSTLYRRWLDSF
PV pol inh intensity: recorded beside PV pol inh, whose call it bears; % elongation; measured here: total intensity read-out; formula for this scale not given here;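 total fluorescence in place of polarization; lower means less elongation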
The depositor's hits bear a star.

The first six compounds as a preview:
SMILES | PV pol inh | PV pol inh intensity
O=C(Cn1nc(-c2ccccc2)nc(Cc2ccccc2)c1=O)Nc1ccc(Cl)cc1 | 109 | 115
COc1ccc(NC(=O)CN2C(=O)CSc3ccc(S(=O)(=O)N4CCCC4)cc32)cc1OC | 101 | 105
COc1ccc(NC(=O)c2ccc(-c3cccc(Cl)c3C)o2)cc1 | 107 | 107
COc1cc(OC)c(NC(=O)n2ncc3cc(Cl)ccc32)cc1Cl | 113 | 115
COc1ccc(-n2nc(C(=O)Nc3ccc(Cl)cn3)c3c4ccccc4n(C)c3c2=O)cc1 | 111 | 108
CC(NC(=O)c1cc(Sc2ccc(F)cc2F)nc2ccccc12)c1ccccc1 (configuration not stated) | 107 | 110

This part in full, repeating the preview:
SMILES | PV pol inh | PV pol inh intensity
O=C(Cn1nc(-c2ccccc2)nc(Cc2ccccc2)c1=O)Nc1ccc(Cl)cc1 | 109 | 115
COc1ccc(NC(=O)CN2C(=O)CSc3ccc(S(=O)(=O)N4CCCC4)cc32)cc1OC | 101 | 105
COc1ccc(NC(=O)c2ccc(-c3cccc(Cl)c3C)o2)cc1 | 107 | 107
COc1cc(OC)c(NC(=O)n2ncc3cc(Cl)ccc32)cc1Cl | 113 | 115
COc1ccc(-n2nc(C(=O)Nc3ccc(Cl)cn3)c3c4ccccc4n(C)c3c2=O)cc1 | 111 | 108
CC(NC(=O)c1cc(Sc2ccc(F)cc2F)nc2ccccc12)c1ccccc1 (configuration not stated) | 107 | 110
COc1cccc(Nc2nc3cc(Cl)c(Cl)cc3nc2-n2nc(C)cc2C)c1 | 105 | 108
CCc1cccc(C)c1NC(=O)CSc1nc2ccccc2nc1Cc1ccccc1 | 107 | 103
O=C(c1ccc(CS(=O)(=O)c2ccc(Br)cc2)o1)N1CCN(c2ccc(F)cc2)CC1 | 103 | 101
CCN(C(=O)CCNC(=O)Cn1cnc2ccccc2c1=O)c1cccc(Cl)c1 | 109 | 108
CCOc1ccc2oc(=O)cc(CN3CCN(Cc4ccc(C)cc4)CC3)c2c1 | 112 | 116
COc1ccc(/C=C/C(=O)Nc2ccc3nc(N4CCC(C)CC4)cc(C)c3c2)cc1 | 107 | 107
COc1cc(NC(=O)c2ccc(-n3cnc4cccnc43)cc2)cc(OC)c1 | 99 | 100
CCc1ccc(NCc2cc3cc4c(cc3n(CC(=O)Nc3ccccc3OC)c2=O)OCCO4)cc1 | 104 | 107
CCC(C)[C@@H](C(=O)Nc1ccc(C)cc1)N1Cc2ccccc2C1=O (some centres not stated) | 107 | 112
CCCOC(=O)c1c(-c2ccccc2)c(-c2ccccc2)nn(C)c1=O | 108 | 109
COc1ccc(C2CC(=O)c3cc(-c4nc(-c5ccc(Cl)cc5)cs4)c(=O)[nH]c3C2)cc1OC (configuration not stated) | 106 | 115
COCCNC(=O)c1cnn(-c2ccc(C)cc2C)c1C1CCN(C(=O)OC(C)(C)C)CC1 | 115 | 116
CCCCn1c(C2CC(=O)N(c3ccc(OCC)cc3)C2)nc2ccccc21 (configuration not stated) | 108 | 105
Cc1ccc(C)c(N(C)C(=O)C2CCN(S(=O)(=O)c3cccc4nsnc34)CC2)c1 | 106 | 104
Cc1cccc(C(=O)n2nc(C)c(S(=O)(=O)N3CCOCC3)c2C)c1 | 104 | 107
CCc1ccc(-n2nc3ccc(NC(=O)c4cc(Cl)c(OC)c(Cl)c4)cc3n2)cc1 | 107 | 109
CCN(CC)S(=O)(=O)c1ccc2c(c1)c(=O)c(C(=O)NCc1ccccc1)cn2C | 103 | 106
Cc1cccc(CNC(=O)Cn2ccc3cc(S(=O)(=O)N4CCC(C)CC4)ccc32)c1 | 105 | 110
Cc1ccc(-n2nc(C)c3c(C(=O)NCCc4ccccc4)cc(C)nc32)cc1 | 110 | 110

Ordered by molecular weight (descending): some entries from above
SMILES | PV pol inh | PV pol inh intensity
O=C(Cn1nc(-c2ccccc2)nc(Cc2ccccc2)c1=O)Nc1ccc(Cl)cc1 | 109 | 115
COc1ccc(/C=C/C(=O)Nc2ccc3nc(N4CCC(C)CC4)cc(C)c3c2)cc1 | 107 | 107
COc1cc(NC(=O)c2ccc(-n3cnc4cccnc43)cc2)cc(OC)c1 | 99 | 100

An excerpt of these results, with each value named:
CCN(C(=O)CCNC(=O)Cn1cnc2ccccc2c1=O)c1cccc(Cl)c1
  PV pol inh = 109 | PV pol inh intensity = 108

CCOc1ccc2oc(=O)cc(CN3CCN(Cc4ccc(C)cc4)CC3)c2c1
  PV pol inh = 112 | PV pol inh intensity = 116

COc1ccc(/C=C/C(=O)Nc2ccc3nc(N4CCC(C)CC4)cc(C)c3c2)cc1
  PV pol inh = 107 | PV pol inh intensity = 107

COc1cc(NC(=O)c2ccc(-n3cnc4cccnc43)cc2)cc(OC)c1
  PV pol inh = 99 | PV pol inh intensity = 100

Next section
SMILES | PV pol inh | PV pol inh intensity
COc1cccc(CNC(=O)c2cc(-c3ccc(Cl)s3)nc3ccccc23)c1 | 107 | 112
COc1ccc(C(=O)NCc2nnc(SCC(=O)Nc3ccc(F)cc3)n2-c2ccccc2)cc1 | 104 | 98
CCN1CCN(C(c2ccccc2F)c2c(O)cc(C)n(CCOC)c2=O)CC1 (configuration not stated) | 113 | 116
CCOC(=O)c1cccc(NC(=O)c2ccc3nc(C(C)C)oc3c2)c1 | 105 | 107
O=C(Nc1ccc(Cl)cc1)C1CCN(S(=O)(=O)c2ccc(Br)s2)CC1 | 110 | 114
O=C(NCc1ccc(Cl)cc1)c1cc(-c2ccc(F)cc2)on1 | 108 | 113
CCOc1ccc(N2CC(c3nc4ccccc4n3CCOc3ccccc3)CC2=O)cc1 (configuration not stated) | 107 | 102
O=c1oc2ccccc2cc1-c1nnc(Nc2ccc(Cl)cc2Cl)s1 | 82 | 128
CCc1nc2ccc(C(=O)NCc3ccc(OC)c(OC)c3)cc2nc1CC | 111 | 115
O=C(Nc1ccc(O)cc1)c1cccc(S(=O)(=O)N2CCOCC2)c1 | 104 | 105
Clc1ccccc1CNc1nc2ccccc2c2nc(-c3cccnc3)nn12 | 103 | 105
COc1cccc(CNC(=O)c2cc(C)nc3c2c(C)nn3-c2cccc(F)c2)c1 | 119 | 118
COc1ccc(-c2cc3ccc(O)c(CN4CCC(C)CC4)c3oc2=O)cc1 | 95 | 120
COc1ccc2cc(-c3nc(-c4ccc(N(C)C)cc4)no3)c(=O)oc2c1 | 115 | 110
O=C(Nc1cccc(F)c1)c1ccc2snnc2c1 | 107 | 109
CCc1ccc(C2C(C(=O)Nc3ccccc3)=C(C)Nc3nc(SCC(=O)c4ccc(C)cc4)nn32)cc1 (configuration not stated) | 110 | 113
O=C(Nc1ccc2c(c1)CCCN2C(=O)c1cccs1)c1ccccc1Cl | 101 | 103
CCCN1CCN(C(=O)Cn2c(-c3cccs3)cc3cc(F)ccc32)CC1 | 106 | 111
Cn1nnnc1SCCNCc1ccccc1OCc1ccccc1F | 101 | 98
CCOc1ccc(CCNC(=O)Cn2ncc3c([nH]c4ccccc43)c2=O)cc1OCC | 111 | 113
Cc1nn(-c2ccccc2)c2nc(C3CC3)cc(C(=O)Nc3cccc(F)c3)c12 | 106 | 108
CCN1CCN(CCCNC(=O)c2ccc3nc(Cc4ccc(OC)cc4)oc3c2)CC1 | 101 | 106
CC1CCC(NC(=O)c2ccc3c(c2)N(Cc2cccc(Cl)c2)C(=O)c2ccccc2S3(=O)=O)CC1 (configuration not stated) | 106 | 108
COc1ccc(N2CCN(C(=O)C3CCCN(C(=O)c4cc5sccc5n4C)C3)CC2)cc1 (configuration not stated) | 106 | 105
CSc1ccc(C(c2c(O)c3ccccc3oc2=O)c2c(C)n(C)n(-c3ccccc3)c2=O)cc1 (configuration not stated) | 100 | 99
Remaining list, next part:
SMILES | PV pol inh | PV pol inh intensity
O=C(CSc1oc(-c2ccco2)nc1S(=O)(=O)c1ccccc1)c1ccc(Cl)cc1 | 104 | 105
Cc1cc(NC(=O)CCS(=O)(=O)c2cc3c4c(c2)CCN4C(=O)CC3)ccc1Br | 115 | 107
COc1ccc(CCNC(=O)CCSCc2ccccc2Cl)cc1OC | 115 | 103
CCOc1ccc(-c2nonc2NC(=O)c2oc3cc(C)c(C)cc3c2C)cc1OCC | 102 | 105
O=c1cc(-c2ccccc2)c2ccc3c(c2o1)CN(Cc1ccccc1)CO3 | 108 | 110
Cc1ccc(O)c(NC(=O)COCc2cc(-c3ccco3)on2)c1 | 105 | 109
CCN(CCCNC(=O)c1cc2c(=O)n(CC)c3ccccc3c2s1)Cc1ccccc1 | 103 | 111
CCOc1ccc(NC(=O)CSc2nc(=O)[nH]c3c2CCC3)cc1 | 101 | 93
COc1cccc(-n2c(=O)c3c(C)c(C(=O)N(C)C)sc3n(CC(=O)NCCc3ccc(OC)c(OC)c3)c2=O)c1 | 106 | 114
Cc1ccc(N2C(=O)CSC23C(=O)N(CC(=O)NC2CCCCC2)c2ccccc23)cc1C (configuration not stated) | 103 | 100
COc1ccc(-c2nc(CSc3nnc(C)n4c3cc3oc(C)cc34)c(C)o2)cc1OC | 111 | 111
CCN(CC)C(=O)c1sc2c(c1C)c(=O)n(-c1ccc(Cl)c(Cl)c1)c(=O)n2Cc1cc(=O)n2ccccc2n1 | 108 | 92
COc1ccc(CCn2c(=O)c3ccccc3n(CC(=O)Nc3cccc(C)c3)c2=O)cc1OC | 112 | 112
O=C(NCCc1ccccc1)c1ccc2c(c1)N(Cc1ccc(Cl)cc1)C(=O)c1ccccc1S2(=O)=O | 112 | 112
Cc1nc2scc(C)n2c(=O)c1S(=O)(=O)Nc1ccc(N2CCOCC2)cc1 | 104 | 108
CC1CCN(c2nc3ccc(C(=O)NCc4ccccc4)cc3s2)CC1 | 106 | 106
COc1ccc(Cn2ccnc2SCC(=O)NCc2ccco2)cc1 | 105 | 103
CN(C)c1ccc(C(CNC(=O)COc2ccccc2)N2CCOCC2)cc1 (configuration not stated) | 110 | 112
COc1ccc(Cl)cc1NC(=O)CSC1=Nc2ccccc2C2=NC(CCC(=O)NCc3ccc(F)cc3)C(=O)N12 (configuration not stated) | 116 | 119
O=C(CSc1n[nH]c(-c2ccccc2Cl)n1)N1CCN(c2ccccc2)CC1 | 110 | 111
O=C(CN1C(=O)c2cccc3cccc1c23)Nc1ccccc1Br | 104 | 104
Cc1ccc(S(=O)(=O)c2nnn(CC(=O)Nc3ccccc3C)c2N)cc1C | 107 | 110
CCOc1cccc(CC(=O)N2CCc3c([nH]c4ccccc34)C2c2ccc(Cl)cc2)c1OCC (configuration not stated) | 107 | 104
Cc1ccccc1OCC(=O)OCc1cc(=O)n2ccsc2n1 | 106 | 108
CCc1ccc(S(=O)(=O)NCc2nc3cccnc3n2Cc2ccccc2Cl)cc1 | 115 | 120
(more compounds)
SMILES | PV pol inh | PV pol inh intensity
Cc1ccc2c(CNCc3ccc(C)o3)c(C(=O)O)n(Cc3ccc(F)cc3)c2c1 | 105 | 103
COc1ccc(N2C(=O)CS(=O)(=O)C23C(=O)N(Cc2ccccc2F)c2ccccc23)cc1Cl (configuration not stated) | 102 | 110
Cc1nnc(N2CCC(C(=O)NCCc3ccccc3)CC2)c2nn(-c3ccc(Cl)cc3)c(C)c12 | 110 | 108
COc1ccc(OC)c(NC(=O)CSC2=Nc3ccccc3C3=NC(CC(=O)NCc4ccc(F)cc4)C(=O)N23)c1 (configuration not stated) | 104 | 104
CCOc1ccc(C(=O)Nc2cccc(-c3nc4cc(Cl)cc(Cl)c4o3)c2)cc1 | 113 | 114
COC(=O)c1c(NC(=O)COc2c(C)cccc2C)sc2c1CCCC2 | 106 | 111
Cc1ccc(Cl)cc1-n1c(=O)c2sc3ccccc3c2n(CC(=O)NC2CCCC2)c1=O | 107 | 109
COc1ccc(Cl)cc1NS(=O)(=O)c1ccc2c(c1)NC(=O)CC(=O)N2 | 109 | 112
CC(=O)c1cc(-c2ccccc2)n(CC(=O)NCCc2ccc(C)cc2)c1C | 103 | 98
COc1cccc(C2C=C(c3ccccc3)Nc3c(C(=O)Nc4ccccc4)cnn32)c1OC (configuration not stated) | 109 | 115
CC(C)CN(CCCNC(=O)c1cc(=O)[nH]c2ccc(S(=O)(=O)N3CCCC3)cc12)CC(C)C | 109 | 104
COC(=O)c1ccccc1NC(=O)CSc1n[nH]c(CC(C)C)n1 | 104 | 105
COc1ccc(Cl)cc1NC(=O)N1CCN(S(=O)(=O)c2ccc3c(ccn3C)c2)CC1 | 100 | 106
Cc1ccc(-c2nnc(SCC(=O)c3ccc(Cl)cc3)n2-c2ccccc2)cc1 | 94 | 101
O=C(Nc1ccc(F)cc1)c1ccc(Cn2nc(N3CCN(c4ccccc4)CC3)ccc2=O)o1 | 110 | 109
Cc1cccc(N2CCN(C(=O)CN3C(=O)COc4ccc(S(=O)(=O)N5CCC(C)CC5)cc43)CC2C)c1 (configuration not stated) | 103 | 103
CCOc1ccc(NC(=O)Cn2c(=O)n(CC(=O)NCc3ccccc3Cl)c(=O)c3sccc32)cc1 | 102 | 102
COc1ccc(-c2noc(CSc3nc(N)cc(=O)[nH]3)n2)cc1 | 108 | 112
COc1cc2c(cc1OC)C(COc1ccc3c(C)cc(=O)oc3c1)N(C(=O)c1cc(Cl)ccc1OC)CC2 (configuration not stated) | 108 | 111
COc1ccc(/C=C\c2onc(C)c2S(=O)(=O)N2CCC(C(=O)Nc3cccc(C)c3C)CC2)cc1 | 110 | 113
Cc1ccc(S(=O)(=O)c2nnn3c2nc(N(C)Cc2ccccc2)c2cc(Cl)ccc23)cc1C | 111 | 106

This is a subset (hit frequency here may not be typical).
